# Screens deposited in PubChem BioAssay by National Center for Advancing Translational Sciences (NCATS).
# NS1 inh – qHTS Assay for Inhibitors of Influenza NS1 Protein Function; S. cerevisiae slowed by influenza A NS1, growth recovery by OD600; Potency, µM (highest dose often 46.1 µM), inactives show top-dose activity, positive = more growth; 270,000 compounds, 0.4% hits; AID 2326, 2010; further: actives are rising curves; nearly all actives have a fitted effect of over 50% in size
#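 In this qHTS, NS1 from influenza A is expressed in budding yeast, where it slows growth. Cells are switched from glucose to 2% galactose medium (pH 6.0, -URA), treated with compound, and growth recovery is read at OD600.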
# Lassa entry inh – qHTS for Inhibitors of binding or entry into cells for Lassa Virus; Lassa virus pseudotype entry inhibition, cell reporter; control for the full effect not named in the record; Potency, µM (top dose mostly 37.9 µM), without a hit: at the top dose activity change, negative = inhibition, actives largely listed as inhibitors; 300,000 compounds, 1.2% hits; AID 540256, 2011; active means well fitted inhibition curve with a large enough effect; inconclusive means small, poorly fitted or top-dose-only effect, or effect the other way; inactive means flat fitted curve, though single readings scatter; tested in HEK293 cells; further: on the % scale 0 is the no-effect control and ±100 the full control effect; nearly all actives have a fitted effect of over 50% in size; luciferase read-out
# MARV entry inh – qHTS for inhibitors of binding or entry into cells for Marburg Virus | Potency, µM (doses to about 37.8 µM), for the others: at the top dose activity change, negative = inhibition, usual class: inhibitors | Marburg virus pseudotyped entry inhibition, cell reporter; control for the full effect not named in the record; about a third of the inactives were read at about 46 µM | 300,000 compounds, 1.8% hits; active = well fitted inhibition curve with a large enough effect; inconclusive = small, poorly fitted or top-dose-only effect, or effect the other way; inactive = flat fitted curve, though single readings scatter; tested in HEK293 cells; about a fifth of its hits are not listed in these tables; further: on the % scale 0 is the no-effect control and ±100 the full control effect; luciferase read-out
# Cruzain Triton – qHTS Assay for Promiscuous and Specific Inhibitors of Cruzain (with detergent). purified cruzain, Z-FR-AMC fluorescence, 0.01% Triton. Cruzipain (Trypanosoma cruzi), P25779. Potency, µM, for the others: max response, negative = inhibition, actives largely listed as inhibitors. 200,000 compounds, 0.43% hits; active means well fitted curve in the direction sought with a large enough effect; inconclusive means small, poorly fitted or top-dose-only effect, or another doubt; inactive means no such curve, though single readings can be large; an effect the other way counts as inactive or inconclusive;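 further: plate controls were neutral wells for no effect and buffer without enzyme for full effect; nearly all actives have a fitted effect of over 40% in size; top concentration of the series not given in the record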
# Target sequence (P25779 123-467 limits assumed): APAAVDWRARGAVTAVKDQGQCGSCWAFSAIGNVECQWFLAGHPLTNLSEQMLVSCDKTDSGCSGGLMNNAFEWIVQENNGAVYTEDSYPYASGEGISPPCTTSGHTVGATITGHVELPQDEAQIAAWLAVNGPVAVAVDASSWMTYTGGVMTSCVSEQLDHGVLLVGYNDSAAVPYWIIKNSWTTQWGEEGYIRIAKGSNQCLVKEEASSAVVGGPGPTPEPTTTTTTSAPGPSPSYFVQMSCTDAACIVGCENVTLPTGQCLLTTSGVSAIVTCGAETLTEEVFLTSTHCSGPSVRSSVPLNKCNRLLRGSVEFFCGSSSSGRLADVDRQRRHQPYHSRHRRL
#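 Cysteine protease activity tested under reducing, mildly acidic conditions (100 mM sodium acetate pH 5.5, 5 mM DTT) plus 0.01% Triton X-100. Cruzain 1.5 nM; substrate Z-FR-AMC 2 uM; 15 min compound preincubation at room temperature.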
# Cruzain inh noDet – qHTS Assay for Promiscuous and Specific Inhibitors of Cruzain (without detergent). 200,000 compounds, 2.3% hits. AID 1476, 2009. Potency, µM, for the others: max response, negative = inhibition, actives largely listed as inhibitors. purified cruzain, Z-FR-AMC fluorescence, no detergent; active means well fitted curve in the direction sought with a large enough effect; inconclusive means small, poorly fitted or top-dose-only effect, or another doubt; inactive means no such curve, though single readings can be large; an effect the other way counts as inactive or inconclusive;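 further: plate controls were enzyme without inhibitor for no effect and buffer without enzyme for full effect; nearly all actives have a fitted effect of over 40% in size; top concentration of the series not given in the record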
#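 Purified cruzain at 1.5 nM, pre-incubated 15 min with compound at room temperature in 100 mM sodium acetate pH 5.5, 5 mM DTT, 0.00005% Triton X-100. Reaction started with 2 uM Z-FR-AMC; AMC fluorescence increase over 60 s gives rate.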
# RE007 growth inh – qHTS Assay for Inhibitors of the HIV-1 protein Vpr. S. pombe RE007 Vpr strain, BacTiter-Glo ATP luminescence, 24 h; control for the full effect not named in the record. Potency, µM (titrated, usually from 92.2 µM), for the others: at the highest dose activity change, negative = less growth. 360,000 compounds, 0.21% hits. AID 651644, 2012; active = well fitted falling curve with a large enough effect; inconclusive = small, poorly fitted or top-dose-only effect; inactive = no such curve, though single readings can be large or run the other way;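 further: on the % scale 0 is the no-effect control and ±100 the full control effect; nearly all actives have a fitted effect of over 50% in size; the assay follows cell death caused by Vpr and the record does not say whether a fall means rescue or toxicity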
#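 Fission yeast strain RE007, carrying one chromosomally integrated HIV-1 vpr copy, was seeded at OD 0.01 in PMG+AL medium with 23 nL pinned compound. After 24 h at 30 °C and 99% humidity, viability was read by BacTiter-Glo luminescence.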
# SARS PLP yeast – qHTS of Yeast-based Assay for SARS-CoV PLP. 330,000 compounds, 0.19% hits. S. cerevisiae expressing SARS-CoV PLpro, growth rescue; control for the full effect not named in the record. Potency, µM (highest dose often 32.9 µM), without a hit: at the highest dose activity, positive = growth rescue. AID 485353, 2010; further: 0% is about no effect; nearly all actives have a fitted effect of over 55% in size; growth read by luminescence after 48 h
# 2A StopGo – High Throughput Screening for Foot and Mouth Disease Virus Antivirals; human cells with a luciferase reporter of 2A StopGo recoding; control for the full effect not named in the record; Potency, µM (series often up to 57.9 µM), without a hit: top-dose signal change, negative = less light; 410,000 compounds, 1.2% hits; active = well fitted falling curve with a large enough effect; inconclusive = small, poorly fitted or top-dose-only effect; inactive = no such curve, though single readings can be large or run the other way; tested in HEK293T cells; further: on the % scale 0 is the no-effect control and ±100 the full control effect; nearly all actives have a fitted effect of over 45% in size; luciferase light after 4 h
# An asterisk follows results filed as active; ? = inconclusive; . = no result given; [ ] = another dose, or the depositor's remark. Unless noted, the call rests on the fitted dose curve; in most records, active means well fitted rising curve with a large enough effect; inconclusive means small, poorly fitted or top-dose-only effect; inactive means no such curve, though single readings can be large or run the other way. Potency means the concentration at half of the fitted maximal effect.
Molecule	NS1 inh	Lassa entry inh	MARV entry inh	Cruzain Triton	Cruzain inh noDet	RE007 growth inh	SARS PLP yeast	2A StopGo
O=C(O)c1ccc(CSc2nc3ccccc3c(=O)n2-c2ccccc2)cc1	5%	.	.	.	.	-5%	9%	-5%
CCC(Sc1nnc(C)n2c1cc1sccc12)C(=O)Nc1ccccc1F (stereo unspecified)	.	-10%[46.1 µM]	.	-4.8%	11%	.	.	-27%
COc1ccc(Cc2nnc(SC)[nH]c2=O)cc1OC	-10%	-3%	5%[46.1 µM]	-0.3%	-7%	0%	-7%	-5%
CC(NC(=O)c1ccccc1SCC(=O)N1CCCC1)c1ccccc1 (stereo unspecified)	.	0%[46.1 µM]	23%	.	.	-7%	-7%	6%
Cc1ccc(N=Cc2nc(-c3ccco3)oc2O)cc1	-9%	?	24%	-16%	-16%	-2%	-3%	.
Cc1cc2n(n1)CCCN2C(=O)Nc1ccccc1C(F)(F)F	.	29%[46.1 µM]	.	-0.4%	6%	.	.	-7%
CCOC(=O)Cn1c(=NC(=O)CSC(C)=O)sc2cc(F)ccc21	15%	.	.	-3.7%	-4%	15%	2%	-12%
CN(CCC1CCOCC1)C(=O)c1cc(COc2c(F)cccc2F)on1	-18%	.	.	.	.	-7%	0%	5%
Cn1c(SCC(N)=O)nnc1-c1cnccn1	5%	7%	6%	.	.	-9%	1%	-9%
CCOCCCNC(=S)N1CCC(NC(=O)c2ccco2)CC1	-6%	-1%[46.1 µM]	9%[46.1 µM]	.	.	-8%	0%	7%
O=S(=O)(NC1CCCCC1)c1cccc2nsnc12	2%	24%[46.1 µM]	?	.	.	-13%	-1%	24%
Cn1nc(-c2ccc(Cl)cc2)c2cc(C(=O)N3CCCC3)sc21	-62%	.	.	-4.4%	?	-5%	1%	?
O=C(COc1ccc([N+](=O)[O-])cc1)Nc1ccc(C(=O)Nc2ccccc2C(=O)O)cc1	2%	-1%	-21%	.	.	11%	0%	-19%
Cc1ccc2nc(-c3ccc(NC(=O)CSc4ccccc4)cc3)[nH]c2c1	22%	?	?	10µM*	?	15%	-3%	.
O=C(Cn1cnc2scc(-c3ccc(F)cc3)c2c1=O)NCC(c1ccco1)N1CCCC1 (stereo unspecified)	.	2%[46.1 µM]	?	.	.	5%	-2%	-14%

# A run of entries of the results above:
Molecule	NS1 inh	Lassa entry inh	MARV entry inh	Cruzain Triton	Cruzain inh noDet	RE007 growth inh	SARS PLP yeast	2A StopGo
CC(NC(=O)c1ccccc1SCC(=O)N1CCCC1)c1ccccc1 (stereo unspecified)	.	0%[46.1 µM]	23%	.	.	-7%	-7%	6%
Cc1ccc(N=Cc2nc(-c3ccco3)oc2O)cc1	-9%	?	24%	-16%	-16%	-2%	-3%	.
Cc1cc2n(n1)CCCN2C(=O)Nc1ccccc1C(F)(F)F	.	29%[46.1 µM]	.	-0.4%	6%	.	.	-7%
CCOC(=O)Cn1c(=NC(=O)CSC(C)=O)sc2cc(F)ccc21	15%	.	.	-3.7%	-4%	15%	2%	-12%
CN(CCC1CCOCC1)C(=O)c1cc(COc2c(F)cccc2F)on1	-18%	.	.	.	.	-7%	0%	5%

# Next section:
Molecule	NS1 inh	Lassa entry inh	MARV entry inh	Cruzain Triton	Cruzain inh noDet	RE007 growth inh	SARS PLP yeast	2A StopGo
COC(=O)c1cc(=O)c2ccc(OC)cc2o1	-3%	-1%	0%	-1.8%	-14%	7%	-4%	-1%
COCCN(C(=O)/C=C/c1ccccc1)c1nnc(-c2cccnc2)s1	.	?	8%[46.1 µM]	.	.	-3%	-2%	-15%
CC1CCc2c(sc3nc(SCC(=O)O)n(-c4ccccc4)c(=O)c23)C1 (stereo unspecified)	0%	.	.	.	.	-1%	1%	-13%
CCOC(=O)c1nn(-c2cccc(C)c2)c2nc(-c3ccccc3)c(C#N)c(=O)n12	8%	1%	-16%	-17%	4%	10%	5%	-8%
C#CC(C)(CC)NC(=O)Cn1nnc(-c2ccc(OCc3ccccc3Cl)cc2)n1 (stereo unspecified)	.	-8%[46.1 µM]	?	-2.3%	11%	.	.	?
COCCNC(=O)CSc1nc(-c2ccc(C)cc2)[nH]c1-c1ccc(OC)cc1	.	?	-20%[46.1 µM]	0.1%	5%	.	.	-6%
CCOC(=O)C1CCNC(=O)C1=O (stereo unspecified)	.	24%	?	.	.	0%	.	-12%
COc1ccc(O[C@H]2C=C[C@@H](c3ccccc3)O[C@@H]2COC(=O)CC/C(C)=N/OC[C@@H](O)[C@H]2O[C@@H]3OC(C)(C)O[C@@H]3[C@H]2O)cc1	-43%	-29%	-7%	-4.2%	?	.	19%	.
O=C(c1cc(C2CC2)nn1-c1ccccc1)N1CCN(S(=O)(=O)c2ccccc2)CC1	.	?	-26%	.	.	6%	-17%	-12%
Cc1ccc(C2c3[nH]c4ccccc4c3C[C@H]3C(=O)N(c4ccccc4C(=O)N4CCC[C@H]4C(=O)O)C(=O)N23)cc1 (stereo partly specified)	15%	.	.	.	.	4%	6%	-10%
CCC(C)NC(=O)CSc1nc2ccccc2c(=O)n1-c1c(C)n(C)n(-c2ccccc2)c1=O (stereo unspecified)	0%	2%	-9%	.	.	-5%	-1%	3%
O=C(C1COc2ccccc2O1)N1CCn2c(nc3ccccc32)C1 (stereo unspecified)	-32%	.	.	-30%	13µM*	-10%	4%	-28%
O=C(CSc1nnc(-c2cccnc2)n1Cc1ccco1)c1ccc2ccccc2c1	-12%	0%	-21%	-11%	17%	-4%	-1%	8%
CCn1nc(C)cc1-c1nnc(SCC(=O)Nc2ccccc2)n1CCCOC	5%	1%	-7%[14.2 µM]	.	.	-12%	-3%	-3%
COc1ccc(-c2nnc(-c3ccc(N)cc3)o2)cc1	-4%	8%	9%	-4.6%	-17%	-28%	-14%	46%[activator]
Cc1cc(NC(=O)c2cc(-c3ccccc3Cl)nc3ccccc23)no1	-40%	1%	?	.	.	24%	-9%	0%
COc1ccc(C(=O)N2CCN=C2SCc2cccnc2)cc1OC	-5%	.	.	-1.4%	-5%	-16%	0%	-23%
Cc1ccc2[nH]cc(CCNC(=O)C3CCCO3)c2c1 (stereo unspecified)	6%	.	.	.	.	9%	-3%	-1%
CCCCn1nnnc1NCc1ccc(OC)c(OC)c1OC	-1%	1%	-1%	0.3%	0%	-3%	5%	25%
CCC(C(=O)NCC1CCCO1)N(Cc1ccccc1)C(=O)CNS(=O)(=O)c1ccccc1 (stereo unspecified)	1%	-14%	-4%[46.1 µM]	.	.	-22%	0%	-2%
Cc1cc(NC(=O)CN(C)CC(=O)Nc2ccc(F)c(F)c2F)no1	.	2%	?	.	.	-7%	2%	-16%
CSCC[C@H](NC(=O)c1ccco1)c1nnc2ccccn12	-2%	.	.	.	.	4%	-2%	-18%
C=CCn1c(CNC(=O)CCC)nc2ccccc21	4%	5%	24%	.	.	-8%	.	-17%
CC1=NN(C(C#N)c2ccccc2C)C(C)(C)C1 (stereo unspecified)	.	-2%	-8%	.	.	5%	0%	-7%
CNS(=O)(=O)c1cccc(C(=O)NCC(c2cccs2)N(C)C)c1 (stereo unspecified)	15%	14%	-11%	1.3%	0%	11%	7%	14%
O=C(Cc1ccccc1)NCCN1CCCC1	2.8µM*	4%	0%[46.1 µM]	.	.	4%	3%	-8%
CCOC(=O)Nc1ccc2c(C)cc(=O)oc2c1	?	?	7%	-16%	2%	8%	?	66%[activator]
Cc1cc(C)c(NC(=O)C2CCCCN2C)c(C)c1 (stereo unspecified)	3%	13%	9%	5.9%	-2%	-10%	4%	-16%
CC(=O)c1ccc(NC(=O)C2CCCN(S(=O)(=O)c3ccc(-n4cnnn4)cc3)C2)cc1 (stereo unspecified)	-6%	27%[46.1 µM]	19%[46.1 µM]	.	.	10%	1%	10%
CCOC(=O)C(NC(=O)Nc1ccc(F)cc1F)(Oc1ccc(F)cc1)C(F)(F)F (stereo unspecified)	13%	-14%	-1%	0.7%	-1%	2%	11%	-2%
Cn1c(=O)c2c(nc(N/N=C/c3ccc(OC(=O)c4ccco4)cc3)n2Cc2ccccc2)n(C)c1=O	16%	10µM*	?	-20%	-7%	-26%	-5%	13µM*
O=C(Nc1cccc2cccnc12)c1ccccc1Cl	.	5%	21%[46.1 µM]	.	.	-14%	.	38%[activator]
CCn1nc(C)c2c(-c3ccccc3)cc(=O)n(C(C)C(=O)Nc3ccc(OC)c(OC)c3)c21 (stereo unspecified)	.	-7%[46.1 µM]	.	-2.3%	?	.	.	-24%
Cc1ccc(NS(=O)(=O)c2c(C)[nH]c(C)c2C(=O)N2CCCC2)cc1	-9%	.	.	.	.	-6%	4%	16%
Cc1ccc(N=C2NC(=O)CS2)c(C)c1	4%	5%	-3%	2.4%	1%	14%	0%	0%
COC(=O)c1cccc(COC(=O)c2cccnc2SC)c1	-6%	?	?	-3.4%	1%	-11%	-9%	0%
CCOC(=O)c1cnc2c(ccc3ccccc32)c1N	-24%	.	.	.	.	-5%	1%	48%[activator]
